Assay outcomes from PubChem BioAssay.
ALR inh – inhibitors of human sulfhydryl oxidase ALR | P55789 | purified ALR, DTT oxidation, H2O2 HRP-luminol luminescence | inhibition, % (no concentration beside the values) | 290,000 tested, 3.8% active | AID 485317;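 active = mean and each replicate at 75% or more; inconclusive = only one of the two met; inactive = neither met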;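 note: stock transfer was 7.5 nL into about 7.5 µL; 0% = neutral wells and 100% = wells with inactivated enzyme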
Target sequence (P55789 whole entry, looked up): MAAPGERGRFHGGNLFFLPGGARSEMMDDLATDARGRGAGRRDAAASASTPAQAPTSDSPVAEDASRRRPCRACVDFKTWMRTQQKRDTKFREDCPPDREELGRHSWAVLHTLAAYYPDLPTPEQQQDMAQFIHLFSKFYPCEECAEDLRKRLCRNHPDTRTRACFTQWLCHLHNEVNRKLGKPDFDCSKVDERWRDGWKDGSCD
HNF4A DNA FP – change in binding of human HNF4 alpha to DNA; activity change, % at 10 µM; HNF4a-FITC DNA binding, fluorescence polarization, 1 h; 360,000 tested, 0.3% active; P41235; in the data active = activity change above about 30%, passing the limit was not always enough;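 note: controls were the assay level and a saturating level of protein; the project sought stronger binding though the title names inhibitors; some compounds called inactive have numbers as strong as hits; positive values seem to mean higher polarization but the record does not say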
Vif TR-FRET – HIV-1 Vif–A3G interaction blockers – biochemical, TR-FRET, GST-Vif 1-94, biotin-A3G peptide, dose response retest, primary screen (AID 1117319); TR-FRET GST-Vif / biotin-A3G peptide binding; higher % means a stronger effect; test concentration not given here; strong numbers were not always called active; one-dose inhibition, %; IC50 in µM for titrated hits; 260,000 tested, 0.57% active;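 active = above the screen mean plus three standard deviations and confirmed in dose response; inconclusive = results disagree or hit not tested in dose response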;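 note: Vif residues 1-94 fused to GST binding biotinylated APOBEC3G peptide 110-148; 0% = full assay without inhibitor and 100% = GST in place of GST-Vif; retest series ran down from 100 µM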
rRNA inh HTS – inhibitors of bacterial rRNA selective over humanized ribosomes; E. coli WT GFP vs humanized-ribosome RFP mutants, fluorescence, 24 h; hits give low values; DMSO median 0, no signal -100; GFP signal change (wild-type ribosome), % (test concentration not listed); 350,000 tested, 1.6% active; AID 720706;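 active = significant combined selectivity score with lowered wild-type GFP, culture density cut under 30%, mutant RFP and density less affected; inactive = any of these conditions unmet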; note: one replicate is shown; some compounds called inactive have numbers as strong as hits
FGF22 binding – binders of recombinant human FGF22 by thermal shift | Q9HCT0 | SYPRO orange fluorescence; percent of sucrose octasulfate shift, DMSO zero | calls only at 9.99 µM | 340,000 tested, 1.5% active | AID 651658;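 active = melting point raised past a set limit in the mean and every replicate; inconclusive = no clear call; three in four hits are not shown here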
Target sequence (Q9HCT0 whole entry, looked up): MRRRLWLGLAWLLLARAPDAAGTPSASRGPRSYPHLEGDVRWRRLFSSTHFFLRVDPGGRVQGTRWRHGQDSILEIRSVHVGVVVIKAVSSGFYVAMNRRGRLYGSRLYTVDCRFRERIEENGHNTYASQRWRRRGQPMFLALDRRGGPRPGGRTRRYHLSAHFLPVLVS
E coli growth – inhibitors of Escherichia coli growth | OD600, 23 h; hits give low values | OD600 absorbance (test concentration not listed) | 330,000 tested, 0.21% active | AID 1053175;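 active = OD600 absorbance below the run mean of sample wells minus 3.6 SD, in any replicate, cut at about 0.56 in these data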;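 note: stock transfer was 300 nL into about 60 µL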
AF4-AF9 inh – blocks AF4 peptide binding to human AF9; AlphaScreen, biotin-AF4 peptide binding to FLAG-AF9; AID 651704; inhibition, % at 10 µM; 350,000 tested, 0.47% active; P42568;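 active = every replicate reaching a set inhibition limit, whatever the replicate mean, cut at about 25% in these data; inconclusive = mean inhibition reaches that limit but some replicates miss it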;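 note: 0% = plate neutral control median and 100% = total signal loss; the record names both 10 and 1 µM as test concentration; the first replicate is given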
Target sequence (P42568 whole entry, looked up): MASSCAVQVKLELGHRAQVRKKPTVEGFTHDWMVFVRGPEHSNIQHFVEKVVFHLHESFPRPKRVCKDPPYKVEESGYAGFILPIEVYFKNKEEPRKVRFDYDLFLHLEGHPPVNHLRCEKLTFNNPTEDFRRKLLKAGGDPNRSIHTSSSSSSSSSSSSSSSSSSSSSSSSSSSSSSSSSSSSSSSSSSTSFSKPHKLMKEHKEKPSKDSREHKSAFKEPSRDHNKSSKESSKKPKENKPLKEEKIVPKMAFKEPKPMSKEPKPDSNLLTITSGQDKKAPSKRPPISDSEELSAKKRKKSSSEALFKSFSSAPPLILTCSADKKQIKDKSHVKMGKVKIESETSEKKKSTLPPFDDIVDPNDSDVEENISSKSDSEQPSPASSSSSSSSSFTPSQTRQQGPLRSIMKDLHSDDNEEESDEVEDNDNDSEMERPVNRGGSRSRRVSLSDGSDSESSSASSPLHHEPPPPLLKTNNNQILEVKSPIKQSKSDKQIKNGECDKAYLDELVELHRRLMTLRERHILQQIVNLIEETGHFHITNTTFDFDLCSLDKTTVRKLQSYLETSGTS
rRNA inh HTS OD600 – recorded beside rRNA inh HTS, whose call it bears; OD600 change, %; measured here: OD600 growth;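 optical density of the mix in the first replicate; 0 = DMSO median and -100 = no signal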
rRNA inh HTS RFP – recorded beside rRNA inh HTS, whose call it bears; RFP signal change, %; measured here: RFP humanized mutant strains;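 first replicate; 0 = DMSO median and -100 = no signal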
* marks the source's active call; other numbers are inactive results; i = inactive; ? = inconclusive; . = no result given. A portion of the library; the hit share may differ from the screen's.

Short forms: A = ALR inh; B = HNF4A DNA FP; C = Vif TR-FRET; D = rRNA inh HTS; E = rRNA inh HTS OD600; F = rRNA inh HTS RFP; G = FGF22 binding; H = E coli growth; I = AF4-AF9 inh
mol: CCc1ccc(-c2csc3ncn(CC)c(=O)c23)cc1
  A = .; B = 3.7; C = .; D = 10.0; E = 4.0; F = -0.8; G = i; H = 0.721; I = -1.7
mol: O=C(COC(=O)c1cc([N+](=O)[O-])ccc1N1CCOCC1)NC1CCS(=O)(=O)C1 (stereo not drawn)
  A = -8.6; B = 0.4; C = -2.3%; D = 3.8; E = 1.4; F = -1.8; G = i; H = 0.639; I = -0.5
mol: Cc1ccc(Nc2nc(N)c([N+](=O)[O-])c(N3CCC(C)CC3)n2)cc1C
  A = -4.4; B = -1.0; C = -3.9%; D = .; E = .; F = .; G = .; H = .; I = .
mol: NC(=O)C1CCN(Cc2nc(-c3cccs3)no2)CC1
  A = .; B = 0.8; C = 15.0%; D = 3.0; E = 5.9; F = -0.9; G = i; H = 0.702; I = -0.4
mol: C[C@H](CO)N1C[C@H](C)[C@@H](CN(C)S(=O)(=O)c2ccc(F)cc2)Oc2ccc(NC(=O)CCC(F)(F)F)cc2CC1=O
  A = .; B = .; C = .; D = 0.7; E = -2.2; F = 0.2; G = i; H = .; I = -2.3
mol: O=C(COc1ccc(Br)cc1Cl)NCCCN1CCOCC1
  A = -8.4; B = 2.8; C = 2.5%; D = 3.5; E = 5.3; F = -2.9; G = i; H = 0.629; I = -0.2
mol: C[C@H](NC(=O)C[C@H]1C[C@H]2c3cc(NS(=O)(=O)c4ccc(F)cc4)ccc3O[C@H]2[C@H](CO)O1)c1ccccc1
  A = .; B = .; C = .; D = 0.4; E = -17.6; F = 3.1; G = i; H = .; I = 0.2
mol: Cc1ccc(Cn2c(S(=O)(=O)O)nc3ccccc32)cc1
  A = 0.4; B = 1.3; C = 1.1%; D = .; E = .; F = .; G = .; H = 0.713; I = .
mol: O=C(CNc1n[nH]c(=O)[nH]c1=O)N/N=C/c1ccccc1
  A = -0.5; B = .; C = -4.5%; D = 17.1; E = 2.0; F = -0.9; G = i; H = .; I = -11.3
mol: CCOc1ccc(C(=O)NCCN(C)C)cc1
  A = -16.5; B = 6.9; C = 0.8%; D = .; E = .; F = .; G = .; H = 0.685; I = .
mol: Cc1c(C(=O)NC(C)C2CC3CCC2C3)cccc1[N+](=O)[O-] (stereo not drawn)
  A = -21.4; B = -2.3; C = -4.0%; D = 1.3; E = -0.5; F = -2.6; G = i; H = 0.695; I = 1.2
mol: C[C@@H]1CN([C@@H](C)CO)C(=O)Cc2cc(NC(=O)Cc3ccccc3)ccc2O[C@H]1CN(C)Cc1ccc(C(=O)O)cc1
  A = .; B = .; C = .; D = -0.5; E = 5.5; F = -3.3; G = i; H = .; I = -3.3
mol: O=C(C[C@@H]1CC[C@H]2[C@@H](COC[C@H](O)CN2C(=O)C2CCCC2)O1)NCc1ccncc1
  A = .; B = .; C = .; D = -0.1; E = 3.7; F = 38.7; G = i; H = .; I = -11.4
mol: CCCn1c(SCC(=O)OCC)nc(C(F)(F)F)cc1=O
  A = -8.4; B = -0.3; C = 5.0%; D = 3.5; E = 4.6; F = -1.1; G = i; H = 0.72; I = -2.0
mol: CC(C)CC#Cc1ccc2c(c1)O[C@@H](CN(C)C)[C@@H](C)CN([C@H](C)CO)S2(=O)=O
  A = .; B = .; C = .; D = -2.3; E = -1.8; F = -1.3; G = i; H = .; I = 3.5
mol: COCc1cc(C)nc(Nc2ccc(C)cc2C)c1C#N
  A = -4.5; B = 0.0; C = 13.9%; D = .; E = .; F = .; G = .; H = 0.729; I = .
mol: C[C@H](CO)N1C[C@H](C)[C@H](CN(C)C(=O)Nc2cccc3ccccc23)Oc2c(NC(=O)Nc3cccc4ccccc34)cccc2C1=O
  A = .; B = .; C = .; D = -3.8; E = -8.4; F = 0.8; G = i; H = .; I = 1.7
mol: C/C=C/c1ccc2c(c1)O[C@@H](CN(C)Cc1cncnc1)[C@@H](C)CN([C@H](C)CO)S2(=O)=O
  A = .; B = .; C = .; D = -5.8; E = -13.5; F = -1.0; G = i; H = .; I = -2.5
mol: Cc1cc(C(=O)NCc2ccc(Cl)cc2)n(-c2ccccc2)n1
  A = -5.5; B = 3.4; C = ?; D = 5.5; E = 4.9; F = 0.8; G = i; H = 0.618; I = -30.1
mol: COc1ccc2c(c1)C(=O)N1[C@H]3c4cc(C)ccc4OC[C@@H]3[C@H](c3ccccc3)[C@]1(C)C(=O)N2
  A = .; B = -0.2; C = .; D = 3.6; E = 5.6; F = -0.2; G = i; H = .; I = -7.8

A draw from above in order of heavy-atom count, ascending:
Short forms: A = ALR inh; B = HNF4A DNA FP; C = Vif TR-FRET; D = rRNA inh HTS; E = rRNA inh HTS OD600; F = rRNA inh HTS RFP; G = FGF22 binding; H = E coli growth; I = AF4-AF9 inh
mol: CCOc1ccc(C(=O)NCCN(C)C)cc1
  A = -16.5; B = 6.9; C = 0.8%; D = .; E = .; F = .; G = .; H = 0.685; I = .
mol: CCCn1c(SCC(=O)OCC)nc(C(F)(F)F)cc1=O
  A = -8.4; B = -0.3; C = 5.0%; D = 3.5; E = 4.6; F = -1.1; G = i; H = 0.72; I = -2.0
mol: Cc1c(C(=O)NC(C)C2CC3CCC2C3)cccc1[N+](=O)[O-] (stereo not drawn)
  A = -21.4; B = -2.3; C = -4.0%; D = 1.3; E = -0.5; F = -2.6; G = i; H = 0.695; I = 1.2
mol: Cc1cc(C(=O)NCc2ccc(Cl)cc2)n(-c2ccccc2)n1
  A = -5.5; B = 3.4; C = ?; D = 5.5; E = 4.9; F = 0.8; G = i; H = 0.618; I = -30.1
mol: CC(C)CC#Cc1ccc2c(c1)O[C@@H](CN(C)C)[C@@H](C)CN([C@H](C)CO)S2(=O)=O
  A = .; B = .; C = .; D = -2.3; E = -1.8; F = -1.3; G = i; H = .; I = 3.5
mol: O=C(C[C@@H]1CC[C@H]2[C@@H](COC[C@H](O)CN2C(=O)C2CCCC2)O1)NCc1ccncc1
  A = .; B = .; C = .; D = -0.1; E = 3.7; F = 38.7; G = i; H = .; I = -11.4
mol: COc1ccc2c(c1)C(=O)N1[C@H]3c4cc(C)ccc4OC[C@@H]3[C@H](c3ccccc3)[C@]1(C)C(=O)N2
  A = .; B = -0.2; C = .; D = 3.6; E = 5.6; F = -0.2; G = i; H = .; I = -7.8
mol: C[C@@H]1CN([C@@H](C)CO)C(=O)Cc2cc(NC(=O)Cc3ccccc3)ccc2O[C@H]1CN(C)Cc1ccc(C(=O)O)cc1
  A = .; B = .; C = .; D = -0.5; E = 5.5; F = -3.3; G = i; H = .; I = -3.3
mol: C[C@H](CO)N1C[C@H](C)[C@H](CN(C)C(=O)Nc2cccc3ccccc23)Oc2c(NC(=O)Nc3cccc4ccccc34)cccc2C1=O
  A = .; B = .; C = .; D = -3.8; E = -8.4; F = 0.8; G = i; H = .; I = 1.7

(further entries)
Short forms: A = ALR inh; B = HNF4A DNA FP; C = Vif TR-FRET; D = rRNA inh HTS; E = rRNA inh HTS OD600; F = rRNA inh HTS RFP; G = FGF22 binding; H = E coli growth; I = AF4-AF9 inh
mol: COc1ccc(NS(=O)(=O)c2ccc(-c3cnc(C4CC4)o3)cc2)cc1OC
  A = -8.0; B = -1.1; C = 20.7%; D = -8.0; E = -21.9; F = 4.4; G = i; H = 0.71; I = 1.7
mol: O=C(Cc1cccs1)Nc1cc(S(=O)(=O)N2CCCCC2)ccc1Cl
  A = -3.9; B = 6.8; C = -9.9%; D = 5.3; E = -0.9; F = 1.7; G = i; H = 0.692; I = -0.9
mol: CC(C)C[C@@H](CN1CCCC1CN1C(=S)NC[C@@H]1Cc1ccccc1)N1C[C@H](Cc2ccccc2)N(CC2CCCCCC2)C1=S (stereo partly drawn)
  A = .; B = 0.5; C = .; D = 11.9; E = 8.1; F = 14.2; G = i; H = .; I = 1.6
mol: N#Cc1ccccc1OCC(=O)OCC(=O)c1ccc[nH]1
  A = 2.4; B = -0.7; C = 8.1%; D = -3.6; E = -12.6; F = 5.8; G = i; H = 0.685; I = -1.5
mol: Cc1ccc(-c2nnn(CC(=O)N(Cc3cccs3)C(C(=O)NC3CCCCC3)c3ccco3)n2)o1 (stereo not drawn)
  A = -3.2; B = 0.2; C = 26.6%; D = .; E = .; F = .; G = .; H = 0.72; I = .
mol: C[C@@H]1CN([C@@H](C)CO)S(=O)(=O)c2ccc(C3=CCCC3)cc2O[C@H]1CN(C)CC1CCOCC1
  A = .; B = .; C = .; D = -11.4; E = -37.9; F = 6.2; G = i; H = .; I = 6.4
mol: COc1ccc(C2/C=C\CN(S(=O)(=O)c3ccc(-c4ccccc4)cc3)CC(=O)N2Cc2ccc(F)cc2)cc1 (stereo not drawn)
  A = .; B = -2.3; C = -4.2%; D = 15.7; E = 17.6; F = -0.5; G = i; H = .; I = -0.3
mol: CCOC(=O)C1(C(F)(F)F)N=C(c2cccnc2)OC(N2CCOCC2)=N1 (stereo not drawn)
  A = 0.0; B = 2.2; C = 20.7%; D = .; E = .; F = .; G = .; H = 0.77; I = .
mol: CC1CCCCN1C(=O)C1CCN(S(=O)(=O)c2ccc(-n3cnnn3)cc2)CC1 (stereo not drawn)
  A = .; B = 0.7; C = -8.3%; D = 6.3; E = 10.9; F = -1.1; G = .; H = 0.712; I = -2.4
mol: CN(C)C(=O)[C@@H]1[C@@H](CO)[C@@H]2Cn3c(ccc(C4=CCCC4)c3=O)[C@@H]2N1Cc1ccccn1
  A = .; B = .; C = .; D = 0.6; E = -3.0; F = -0.6; G = i; H = .; I = -1.8
mol: COc1ccc(CCNC(=O)CCCc2nnc3n(C)c(=O)c4sccc4n23)cc1OC
  A = .; B = 2.5; C = -2.9%; D = -4.2; E = -2.9; F = -5.4; G = i; H = 0.691; I = -4.1
mol: COc1ccccc1CN1CCN(S(=O)(=O)c2ccc(C)cc2)CC1
  A = -13.9; B = 2.5; C = .; D = -18.1; E = -7.1; F = -1.0; G = i; H = 0.68; I = 2.2

Random excerpt: 2 records from the list, in no set order.
Short forms: A = ALR inh; B = HNF4A DNA FP; C = Vif TR-FRET; D = rRNA inh HTS; E = rRNA inh HTS OD600; F = rRNA inh HTS RFP; G = FGF22 binding; H = E coli growth; I = AF4-AF9 inh
mol: N#Cc1ccccc1OCC(=O)OCC(=O)c1ccc[nH]1
  A = 2.4; B = -0.7; C = 8.1%; D = -3.6; E = -12.6; F = 5.8; G = i; H = 0.685; I = -1.5
mol: CC(C)C[C@@H](CN1CCCC1CN1C(=S)NC[C@@H]1Cc1ccccc1)N1C[C@H](Cc2ccccc2)N(CC2CCCCCC2)C1=S (stereo partly drawn)
  A = .; B = 0.5; C = .; D = 11.9; E = 8.1; F = 14.2; G = i; H = .; I = 1.6
